FXIa inh = inhibitors of human coagulation factor XIa | 0.3% of 33,000 active | inhibition, % at 10 µM | AID 687 | purified human FXIa, fluorogenic AMC substrate cleavage;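 active = inhibition above 40% in the primary screen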;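 note: 0% = enzyme without compound and 100% = blank wells lacking enzyme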
* = called active by the depositor.

| Compound | FXIa inh |
| --- | --- |
| COC(=O)c1nc(NC(=O)c2ccccc2)n[nH]1 | 23 |
| CCN(CC)S(=O)(=O)c1cccc(C(=O)N[C@H](C(=O)OCC(=O)Nc2ccccc2)C(C)C)c1 | -1 |
| CCn1c(CNC(=O)Cc2ccc(OC)cc2)nnc1SCC(=O)c1ccc(Br)cc1 | 5 |
| COc1cc(C=C(C(C)=O)C(C)=O)ccc1O | -2 |
| COc1ccccc1NC(=O)C1=C(C)Nc2nnnn2C1c1cccc(Br)c1 (stereo unspecified) | 1 |
| CCn1c(CNC(=O)c2ccc(OC)cc2)nnc1SCC(=O)c1ccccc1 | -5 |
| Cc1cccc(C(=O)Nc2sc3c(c2C#N)CCCCC3)c1 | 0 |
| CC12CCC(C(=O)Nc3ccccc3)(C/C1=N\O)C2(C)C (stereo unspecified) | -1 |
| Nc1nc(-c2ccccc2)nn1C(=O)Cc1ccccc1 | -5 |
| CCNC(=O)CC1C(=O)N(c2ccccc2)C(=O)N1CCC(C)C (stereo unspecified) | -2 |
| COc1ccc(-c2nc(N)n(C(=O)Cc3ccccc3)n2)cc1 | 18 |
| COc1cc(C(=O)n2nc(C)cc2C)ccc1O | -8 |
| CCOc1cc(/C=C2/C(=N)N3OC(C)=CC3=NC2=O)ccc1OCCOc1ccccc1 | -3 |
| COc1ccc(C(=O)NCCCN2CCOCC2)cc1OC | -1 |
| Cc1cc(C(=O)N2CCN(c3ccccc3)CC2)c(C)o1 | -13 |
| Nc1nc(C(=O)N2CCOCC2)nn1S(=O)(=O)c1ccccc1 | 3 |

Sorted by the number under FXIa inh (rising): 3 of the compounds above.
| Compound | FXIa inh |
| --- | --- |
| Nc1nc(-c2ccccc2)nn1C(=O)Cc1ccccc1 | -5 |
| Nc1nc(C(=O)N2CCOCC2)nn1S(=O)(=O)c1ccccc1 | 3 |
| COc1ccc(-c2nc(N)n(C(=O)Cc3ccccc3)n2)cc1 | 18 |

In the list so far, these have a halogen.
| Compound | FXIa inh |
| --- | --- |
| CCn1c(CNC(=O)Cc2ccc(OC)cc2)nnc1SCC(=O)c1ccc(Br)cc1 | 5 |
| COc1ccccc1NC(=O)C1=C(C)Nc2nnnn2C1c1cccc(Br)c1 (stereo unspecified) | 1 |

Taken from above.
COc1ccccc1NC(=O)C1=C(C)Nc2nnnn2C1c1cccc(Br)c1 (stereo unspecified) in FXIa inh reads 1
CCNC(=O)CC1C(=O)N(c2ccccc2)C(=O)N1CCC(C)C (stereo unspecified) in FXIa inh reads -2
Cc1cccc(C(=O)Nc2sc3c(c2C#N)CCCCC3)c1 in FXIa inh reads 0

Only part of the results is shown; most or all hits stand in other tables.
